Cruzain inh noDet – blocks cruzain activity in detergent-free assay | AID 1476 | P25779 | Potency, µM, for inactives: max response, negative = inhibition, hits mostly inhibitors | purified cruzain, Z-FR-AMC fluorescence, no detergent | 200,000 tested, 2.3% active; active means well fitted curve in the direction sought with a large enough effect; inconclusive means small, poorly fitted or top-dose-only effect, or another doubt; inactive means no such curve, though single readings can be large; an effect the other way counts as inactive or inconclusive;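 further: plate controls were enzyme without inhibitor for no effect and buffer without enzyme for full effect; nearly all actives have a fitted effect of over 40% in size; top concentration of the series not given in the record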
Target sequence (P25779 123-467 limits assumed): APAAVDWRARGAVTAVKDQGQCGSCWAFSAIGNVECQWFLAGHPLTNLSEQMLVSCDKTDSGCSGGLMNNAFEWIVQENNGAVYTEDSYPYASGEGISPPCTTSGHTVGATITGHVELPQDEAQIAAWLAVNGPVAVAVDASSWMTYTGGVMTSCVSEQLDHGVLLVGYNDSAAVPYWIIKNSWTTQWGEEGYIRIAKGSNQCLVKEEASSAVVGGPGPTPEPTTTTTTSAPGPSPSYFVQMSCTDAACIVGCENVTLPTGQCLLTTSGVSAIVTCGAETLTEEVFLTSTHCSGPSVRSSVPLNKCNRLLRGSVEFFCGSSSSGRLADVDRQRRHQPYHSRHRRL
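Purified cruzain at 1.5 nM, pre-incubated 15 min with compound at room temperature in 100 mM sodium acetate pH 5.5, 5 mM DTT, 0.00005% Triton X-100. Reaction started with 2 uM Z-FR-AMC; AMC fluorescence increase over 60 s gives rate.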
SARS PLpro yeast – SARS-CoV PLP inhibition in yeast; S. cerevisiae expressing SARS-CoV PLpro, growth rescue; control for the full effect not named in the record; 330,000 tested, 0.19% active; Potency, µM (series often up to 32.9 µM), for inactives: top-dose activity, positive = growth rescue; further: 0% is about no effect; nearly all actives have a fitted effect of over 55% in size; growth read by luminescence after 48 h
Lassa entry inh – inhibitors of Lassa virus binding or cell entry; Lassa virus pseudotype entry inhibition, cell reporter; control for the full effect not named in the record; Potency, µM (doses to about 37.9 µM), inactives show top-dose activity change, negative = inhibition, actives largely listed as inhibitors; 300,000 tested, 1.2% active; AID 540256; active means well fitted inhibition curve with a large enough effect; inconclusive means small, poorly fitted or top-dose-only effect, or effect the other way; inactive means flat fitted curve, though single readings scatter; tested in HEK293 cells; further: on the % scale 0 is the no-effect control and ±100 the full control effect; nearly all actives have a fitted effect of over 50% in size; luciferase read-out
Cruzain Triton – inhibitors of Trypanosoma cruzi cruzain with detergent. P25779. purified cruzain, Z-FR-AMC fluorescence, 0.01% Triton. Potency, µM, inactives show max response, negative = inhibition, actives largely listed as inhibitors. 200,000 tested, 0.43% active. AID 1478; active means well fitted curve in the direction sought with a large enough effect; inconclusive means small, poorly fitted or top-dose-only effect, or another doubt; inactive means no such curve, though single readings can be large; an effect the other way counts as inactive or inconclusive;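 further: plate controls were neutral wells for no effect and buffer without enzyme for full effect; nearly all actives have a fitted effect of over 40% in size; top concentration of the series not given in the record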
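Read-out: AMC fluorescence (360 nm excitation, 450 nm emission), four reads over 2 min, first-to-third difference used. Conditions: cruzain 1.5 nM, Z-FR-AMC 2 uM, pH 5.5 acetate, 5 mM DTT, 0.01% Triton X-100.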
NS1 function inh – influenza NS1 inhibition | S. cerevisiae slowed by influenza A NS1, growth recovery by OD600 | Potency, µM (highest dose often 46.1 µM), without a hit: top-dose activity, positive = more growth | 270,000 tested, 0.4% active | AID 2326; further: actives are rising curves; nearly all actives have a fitted effect of over 50% in size
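S. cerevisiae expressing influenza A NS1, grown in glucose, washed, then diluted 1:100 into pH 6.0 -URA galactose medium with 23 nl compound. Growth recovery read as OD600; NS1-free strain serves as control.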
MARV entry inh – inhibitors of Marburg virus binding or cell entry; Marburg virus pseudotyped entry inhibition, cell reporter; control for the full effect not named in the record; about a third of the inactives were read at about 46 µM; Potency, µM (titrated, usually from 37.8 µM), without a hit: at the highest dose activity change, negative = inhibition, actives largely listed as inhibitors; 300,000 tested, 1.8% active; active = well fitted inhibition curve with a large enough effect; inconclusive = small, poorly fitted or top-dose-only effect, or effect the other way; inactive = flat fitted curve, though single readings scatter; tested in HEK293 cells; about a fifth of its hits are not listed in these tables; further: on the % scale 0 is the no-effect control and ±100 the full control effect; luciferase read-out
StopGo reporter – lowers the luciferase signal of an FMDV 2A StopGo reporter | human cells with a luciferase reporter of 2A StopGo recoding; control for the full effect not named in the record | 410,000 tested, 1.2% active | AID 1159524 | Potency, µM (top dose mostly 57.9 µM), for inactives: at the highest dose signal change, negative = less light; active = well fitted falling curve with a large enough effect; inconclusive = small, poorly fitted or top-dose-only effect; inactive = no such curve, though single readings can be large or run the other way; tested in HEK293T cells; further: on the % scale 0 is the no-effect control and ±100 the full control effect; nearly all actives have a fitted effect of over 45% in size; luciferase light after 4 h
RE007 growth inh – less growth of the S. pombe RE007 Vpr strain; S. pombe RE007 Vpr strain, BacTiter-Glo ATP luminescence, 24 h; control for the full effect not named in the record; Potency, µM (highest dose often 92.2 µM), without a hit: top-dose activity change, negative = less growth; 360,000 tested, 0.21% active; AID 651644; active = well fitted falling curve with a large enough effect; inconclusive = small, poorly fitted or top-dose-only effect; inactive = no such curve, though single readings can be large or run the other way;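 further: on the % scale 0 is the no-effect control and ±100 the full control effect; nearly all actives have a fitted effect of over 50% in size; the assay follows cell death caused by Vpr and the record does not say whether a fall means rescue or toxicity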
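Fission yeast RE007 carrying one integrated HIV-1 vpr copy, seeded at OD 0.01 in PMG+AL medium with 23 nL pinned compound. Grown 24 h at 30 degrees; viability read by BacTiter-Glo luminescence after 5 min.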
Starred values were filed as active, the others as inactive; ? = inconclusive; nt = not tested or not shown; [ ] = another dose, or the depositor's remark. Unless noted, the call rests on the fitted dose curve; in most records, active means well fitted rising curve with a large enough effect; inconclusive means small, poorly fitted or top-dose-only effect; inactive means no such curve, though single readings can be large or run the other way. Potency means the concentration at half of the fitted maximal effect.

mol,StopGo reporter,Lassa entry inh,SARS PLpro yeast,NS1 function inh,Cruzain Triton,RE007 growth inh,MARV entry inh,Cruzain inh noDet
O=C1CC(N2CCN(S(=O)(=O)c3ccccc3F)CC2)C(=O)N1c1ccc(F)cc1F (stereo unspecified),-8%,2%[46.1 µM],-30%,nt,nt,-20%,-3%[46.1 µM],nt
Cc1cc(C)c(C#N)c(SCCS(=O)(=O)Cc2ccccc2)n1,nt,10%,-2%,-6%,-4.0%,-1%,-13%,-9%
O=C(CCNC(=O)c1ccc(Cl)cc1)NCC(c1ccco1)N1CCCCC1 (stereo unspecified),-17%,-12%,-6%,nt,nt,-12%,-23%[46.1 µM],nt
O=C(CNC(=O)C12CC3CC(CC(C3)C1)C2)NC1=NCCS1,0%,-11%,6%,-1%,3.1%,9%,27%,-4%
O=[N+]([O-])c1cc([N+](=O)[O-])c(Oc2c(F)cccc2F)cc1NN1CCCCC1,-30%,nt,4%,-2%,nt,12%,nt,nt
COc1ccc(C(=O)Nc2nnc(SCC(=O)NCc3ccco3)s2)cc1OC,-12%,?,1%,21%,nt,-3%,9%,nt
COc1ccc(OC)c(NC(=O)CN2C(=O)COc3ccc(S(=O)(=O)NC4CCCC4)cc32)c1,9%,-4%[46.1 µM],nt,nt,-2.0%,nt,nt,-1%
OC1c2cc(Br)ccc2N=C2CCCN21 (stereo unspecified),?,nt,0%,-1%,nt,-2%,nt,nt
Cc1cc(C)c2cc(C=O)c(Cl)nc2c1,16%,?,-8%,nt,nt,-6%,18%,nt
C=CCNC(=O)CCNS(=O)(=O)c1ccc(Br)cc1,20%,1%,5%,12%,1.7%,-12%,4%,-4%
CC(C)(C)c1cc(CN2CCN(CCO)CC2)cc(C(C)(C)C)c1O,-2%,-6%,-32%,-8%,7.1%,10%,0%,-1%
CCOC(=O)CCn1c(CC(=O)OCC)nc2ccccc21,-7%,16%,5%,10%,6.7%,1%,13%,7%
COc1ccccc1CN(Cc1cccnc1)S(=O)(=O)c1ccc(-n2cnnn2)c(OC)c1,21%,0%[46.1 µM],19%,-12%,nt,-6%,7%[46.1 µM],nt
CC(C)CCN1CCNC(=O)C1CC(=O)N(C)CCCN1CCOCC1 (stereo unspecified),-13%,1%,10%,-11%,nt,-13%,-2%,nt
COc1ccccc1CNC(=O)C1CCN(S(=O)(=O)c2ccc3c(c2)CC(C)N3C(=O)C2CC2)CC1 (stereo unspecified),?,nt,-9%,12%,nt,2%,nt,nt
CC(=O)N1CCN(Cc2nc3cc(NC(=O)COc4cccc(C)c4)ccc3n2C)CC1,?,-23%[46.1 µM],11%,10%,nt,-10%,?,nt
CCC(Cc1ccccc1)NC(=O)Cn1nc(C)n2c(cc3occc32)c1=O (stereo unspecified),0%,2%[46.1 µM],nt,nt,-3.6%,nt,?,8%
Cc1ccc(S(=O)(=O)Nc2c(C)nc3nc(C)[nH]n3c2=O)cc1,2%,6%,3%,-10%,nt,6%,-1%[46.1 µM],nt
Cc1cc2ncn(CC(O)COC3CCCCC3)c2cc1C (stereo unspecified),-25%,19%,-2%,-7%,0.2%,-4%,7%,-2%
CCOC(=O)Cn1cc(C=C2C(=O)N(C)C(=O)N(C)C2=O)c2ccccc21,-15%,-11%,2%,6%,nt,5%,-16%[46.1 µM],nt
O=[N+]([O-])/C=C/c1c(OCc2ccccc2)ccc2ccccc12,nt,nt,3%,-38%,0.7%,nt,nt,15%
COc1ccc(N(C(=O)c2csnn2)C(C(=O)NC2CCCC2)c2cccs2)cc1 (stereo unspecified),27%,0%[46.1 µM],-1%,-1%,nt,57%,6%[46.1 µM],nt
O=C(CNC(=O)CNC(=O)c1ccc(Cl)cc1Cl)NCc1cccc(Cl)c1,8%,5%,?,-4%,nt,4%,-7%[46.1 µM],nt
CCc1ccc(N(CC(=O)NCc2ccc(OC)cc2)C(=O)CCC(=O)Nc2ccccn2)cc1,13%,?,7%,-5%,nt,1%,-22%[46.1 µM],nt
O=C(CC1NCCNC1=O)Nc1ccc([N+](=O)[O-])cc1 (stereo unspecified),37%[activator],12%,1%,nt,nt,-7%,?,nt
CC(NC(=O)c1ccccc1Cl)C(=O)N1CCN(Cc2ccc3c(c2)OCO3)CC1 (stereo unspecified),-10%,8%,6%,nt,nt,26%,4%,nt
COc1ccccc1CN1C(=O)CN(C2CCCC2)C(=O)C1c1ccc(F)cc1 (stereo unspecified),11%,-29%[14.3 µM],0%,-7%,3.7%,0%,3%,3%
COc1ccc(C(=O)C2CCCN(C(=O)c3cc(C(C)C)no3)C2)cc1F (stereo unspecified),-4%,nt,-3%,-12%,nt,2%,nt,nt
COc1ccc2c(c1OC)C(=O)N(c1cccc(NC(C)=O)c1)C2,22%,-15%[46.1 µM],0%,7%,nt,13%,-15%[46.1 µM],nt
Cc1cc([N+](=O)[O-])c(C)cc1-c1ccc(/C=N/NC(=O)Cn2nnnc2N)o1,0%,5%,-5%,nt,nt,-4%,-8%[46.1 µM],nt

A different layout for part of the listing above.
Compound: CC(NC(=O)c1ccccc1Cl)C(=O)N1CCN(Cc2ccc3c(c2)OCO3)CC1 (stereo unspecified)
- StopGo reporter = -10%
- Lassa entry inh = 8%
- SARS PLpro yeast = 6%
- NS1 function inh = nt
- Cruzain Triton = nt
- RE007 growth inh = 26%
- MARV entry inh = 4%
- Cruzain inh noDet = nt

Compound: O=C(CNC(=O)CNC(=O)c1ccc(Cl)cc1Cl)NCc1cccc(Cl)c1
- StopGo reporter = 8%
- Lassa entry inh = 5%
- SARS PLpro yeast = ?
- NS1 function inh = -4%
- Cruzain Triton = nt
- RE007 growth inh = 4%
- MARV entry inh = -7%[46.1 µM]
- Cruzain inh noDet = nt

Compound: O=C1CC(N2CCN(S(=O)(=O)c3ccccc3F)CC2)C(=O)N1c1ccc(F)cc1F (stereo unspecified)
- StopGo reporter = -8%
- Lassa entry inh = 2%[46.1 µM]
- SARS PLpro yeast = -30%
- NS1 function inh = nt
- Cruzain Triton = nt
- RE007 growth inh = -20%
- MARV entry inh = -3%[46.1 µM]
- Cruzain inh noDet = nt

(next part)
mol,StopGo reporter,Lassa entry inh,SARS PLpro yeast,NS1 function inh,Cruzain Triton,RE007 growth inh,MARV entry inh,Cruzain inh noDet
CN(C(=O)Cn1ncc2c1-c1ccccc1OC2)c1ccc(Br)cc1,-11%,nt,nt,nt,-4.2%,nt,2%[46.1 µM],5%
Cc1nn(-c2ccccc2)c(C)c1C(=O)OCC(=O)N1c2ccccc2NC(=O)C1(C)C,?,?,1%,-1%,1.2%,12%,-23%,-4%
CC1=C(C(=O)OC2CCCCCC2)C(c2c(Cl)cccc2Cl)CC(=O)N1 (stereo unspecified),?,6%[46.1 µM],nt,nt,-9.9%,nt,?,-9%
COc1cccc(OC)c1C(=O)NC(=S)Nc1cccc(NC(=O)c2ccco2)c1,-27%,13%,0%,nt,nt,3%,?,nt
O=C(COC(=O)c1ccccc1[N+](=O)[O-])NNC(=O)c1cccs1,-19%,-1%,-3%,-1%,nt,3%,2%,nt
O=C(NCc1ccccc1)C12CN(Cc3ccccc3)CC1C(c1cccc([N+](=O)[O-])c1)=NO2 (stereo unspecified),-3%,nt,-24%,-2%,3.5%,2%,nt,-26%
CCOC(=O)c1c(NC(=O)c2noc3c2CCCC3)sc(C)c1C,nt,nt,5%,-100%,-0.9%,nt,nt,1%
Oc1c(C(c2ccc(Br)cc2)N2CCOCC2)sc2nc(-c3ccco3)nn12 (stereo unspecified),3%,23%[46.1 µM],nt,nt,-3.9%,nt,nt,?
COc1ccc2nc(SCc3cccnc3)c(C#N)cc2c1,9%,6%,-6%,-19%,1.2%,-15%,-2%,3%
Cc1ccc(N(CC(=O)NCC2CCCO2)C(=O)CCC(=O)Nc2ccccn2)cc1C (stereo unspecified),17%,-3%,14%,-3%,1.4%,-14%,9%[46.1 µM],2%
NC(=O)c1sc2nc(-c3ccccc3)ccc2c1N,67%[activator],nt,1%,-6%,nt,8%,nt,nt
Cc1ccc(-n2ccc(=O)c(C(=O)Nc3ccc(S(=O)(=O)N4CCOCC4)cc3)n2)cc1,-7%,-3%[46.1 µM],6%,1%,nt,-6%,-15%[46.1 µM],nt
CC(=O)OC(C)(CCC(C)(OC(C)=O)C(C)=O)C(C)=O (stereo unspecified),-10%,4%,1%,9%,4.1%,7%,-2%,1%
CNC(=S)N(Cc1cc2ccc(OC)cc2[nH]c1=O)CC1CCCO1 (stereo unspecified),-8%,-3%,1%,7%,nt,-9%,?,nt
CNC(=O)CN(c1cc(C)ccc1C)S(C)(=O)=O,-15%,7%,-1%,4%,3.8%,5%,0%,-3%
Cc1sc2ncn(CC(=O)N3CCC(C(N)=O)CC3)c(=O)c2c1S(=O)(=O)N1CC(C)CC(C)C1 (stereo unspecified),0%,16%[46.1 µM],2%,14%,nt,41%,16%[46.1 µM],nt
CC1=C(C(=O)Nc2ccccc2)C(c2ccco2)C(C#N)=C(SCC(=O)OC(C)C)N1 (stereo unspecified),?,-28%,3%,10%,-8.9%,-2%,?,-9%
COc1ccc(NC(=O)CCn2cccn2)cc1OC,-10%,6%[46.1 µM],nt,nt,-0.5%,nt,nt,-13%
CC(C)(C)NC(=O)C1CCC(C)(C(=O)O)C1(C)C (stereo unspecified),25%,2%,0%,13%,3.3%,17%,0%,0%
COc1cccc(C(=O)NC(=S)Nc2ccccc2N2CCCCC2)c1,?,nt,?,?,nt,-11%,nt,nt

Source: PubChem (National Center for Advancing Translational Sciences (NCATS))

The order is random (roughly 4.7% active in at least one column).
